High-throughput results deposited in PubChem by several laboratories.
YopH inh: YopH tyrosine phosphatase inhibitors, primary screen, biochemical, fluorescence Ex485/Em525; AID 898, 2007; inhibition, %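 (about 10 µM by stock and volumes)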; actives 0.16% (n = 140,000); YopH tyrosine phosphatase [Yersinia enterocolitica];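 active = inhibition of 50% or more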;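 also: controls were vehicle for no effect and minimum signal wells for full effect; inactives centre near -20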
Arbovirus anti: antivirals against arbovirus infection, primary screen, cell-based, full library, 10K replicate subset; actives 0.37% (n = 200,000); inhibition, % at 10 µM; AID 1251, 2008; arbovirus infection cell-based antiviral screen;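 active = inhibition from about 30%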;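 also: bluetongue infection of BSR cells; cell survival read as ATP light after 72 h; 0% = infected wells without compound and 100% = uninfected wells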
Mtb H37Rv: M. tuberculosis H37Rv growth inhibitors, H37Rv strain (AID 1626); actives 0.95% (n = 220,000); one-dose inhibition, % at 10 µM; IC50 in µM for titrated hits; M. tuberculosis H37Rv growth inhibition; higher % means a stronger effect;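 active = confirmed in a dose series; inconclusive = inhibition above 80% but not taken into the dose series; inactive = below 80% or under 30% at every dose of the series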;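 also: bacteria incubated seven days before Alamar blue readout; 0% = bacteria only wells and 100% = bacteria with antibiotic wells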
Mtb betalactam: beta-lactam sensitization of Mtb H37Rv, H37Rv. M. tuberculosis H37Rv growth with meropenem, percent inhibition; hits of this screen are not shown here. inhibition, % at 25 µM. actives 0.27% (n = 330,000). AID 434955, 2010;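 active = about 74% or more and at least 40 points above the plate without the antibiotic, then above 30% in a dose series; inconclusive = first-round hits that could not be retested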;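 also: growth measured after seven days incubation then overnight dye step; 0% = bacteria only wells and 100% = bacteria with antibiotic; twin plates without the antibiotic show which effects depend on it; some results filed as inactive read as strong as hits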
RecA splice inh: Mtb RecA intein splicing inhibitors, primary screen, biochemical, fluorescence, HTS; cell-free RecA intein splicing; actives 0.75% (n = 290,000); inhibition, %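 (about 9 µM by stock and volumes)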; AID 2221, 2009; in the data active = inhibition above about 30%; inconclusive = no clear call, values can overlap the other calls;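 also: 0% = vehicle wells and 100% = reference inhibitor control wells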
Target sequence (P9WHJ3 whole entry, looked up, canonical isoform): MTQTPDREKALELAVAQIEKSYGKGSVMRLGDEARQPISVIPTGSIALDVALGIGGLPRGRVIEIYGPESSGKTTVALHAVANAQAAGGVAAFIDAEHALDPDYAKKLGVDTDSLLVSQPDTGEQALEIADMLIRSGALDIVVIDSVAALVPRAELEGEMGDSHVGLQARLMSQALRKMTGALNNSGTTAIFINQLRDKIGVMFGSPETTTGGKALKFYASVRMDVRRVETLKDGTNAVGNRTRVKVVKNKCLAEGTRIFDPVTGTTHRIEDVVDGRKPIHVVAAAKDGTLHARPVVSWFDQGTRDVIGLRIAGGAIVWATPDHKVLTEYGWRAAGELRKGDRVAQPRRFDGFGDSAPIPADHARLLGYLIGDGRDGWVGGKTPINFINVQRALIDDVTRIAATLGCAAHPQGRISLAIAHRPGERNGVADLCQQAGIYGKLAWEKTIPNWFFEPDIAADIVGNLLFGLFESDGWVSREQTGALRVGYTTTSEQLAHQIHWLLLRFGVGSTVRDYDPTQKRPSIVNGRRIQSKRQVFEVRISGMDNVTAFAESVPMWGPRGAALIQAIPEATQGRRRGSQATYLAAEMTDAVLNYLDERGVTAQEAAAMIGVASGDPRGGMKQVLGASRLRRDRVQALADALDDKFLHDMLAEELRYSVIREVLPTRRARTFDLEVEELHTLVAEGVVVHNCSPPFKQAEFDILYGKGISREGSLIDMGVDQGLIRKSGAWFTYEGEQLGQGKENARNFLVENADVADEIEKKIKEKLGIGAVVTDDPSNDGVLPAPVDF
Arbovirus anti repeat: second read-out of Arbovirus anti, no call of its own (marks repeat the call); inhibition, %; measured here: 10K subset replicate screen; many hits read low in the repeat;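 first of two repeat runs on a subset; 0% = infected and 100% = uninfected wells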
Starred values were filed as active, the others as inactive; ? = inconclusive; nt = not tested or not shown. Not all compounds are listed; the hit share may differ from the screen's.

The opening 2 records (preview)
SMILES | YopH inh | Arbovirus anti | Mtb H37Rv | Mtb betalactam | RecA splice inh | others
CN(C)Cc1cc(CN(C)C)c(O)c(CCc2ccccc2)n1 | 0 | 5 | -8% | -11 | -1.0
CC(NC(=S)Nc1ccccc1OC(F)F)C(C)(C)C (centres undefined) | -33 | 12 | 0% | -3 | -1.7

Results, repeating the preview:
SMILES | YopH inh | Arbovirus anti | Mtb H37Rv | Mtb betalactam | RecA splice inh | others
CN(C)Cc1cc(CN(C)C)c(O)c(CCc2ccccc2)n1 | 0 | 5 | -8% | -11 | -1.0
CC(NC(=S)Nc1ccccc1OC(F)F)C(C)(C)C (centres undefined) | -33 | 12 | 0% | -3 | -1.7
O=C(CSCc1cnn(-c2ccccc2)c1-n1cccc1)NCc1ccccn1 | nt | -13 | -2% | -7 | -1.9
O=C(NCc1ccccn1)c1nc(-c2ccc(C(F)(F)F)cc2)no1 | nt | -4 | -4% | 4 | 0.7
CCc1ccc(NC(=O)Cn2nnc(-c3ccc(C)cc3-n3cnnn3)n2)cc1 | nt | nt | nt | 4 | -1.0
CCN1CCN(C(=O)CN(C)S(=O)(=O)c2ccc(OC)cc2)CC1 | -25 | 8 | -4% | -4 | -1.2
Nc1c(N2CCCCC2)c(=O)[nH]c(=O)n1-c1ccccc1 | -29 | 2 | -2% | -5 | -6.2
CCC(=O)Nc1cccc(NC(=O)c2ccc3c(c2)OCO3)c1 | -48 | -2 | 0% | 8 | -1.0
CC(C)(C)c1ccc(C(CC(=O)O)NS(=O)(=O)Cc2ccccc2)cc1 (centres undefined) | nt | nt | nt | 1 | 1.3
COc1ccc(CNC(=O)CSc2nc3ccc(C)cc3[nH]2)cc1 | nt | nt | nt | -2 | 0.4
Cc1cccc(-n2c(CCN3C(=O)c4ccccc4C3=O)nc3ccccc3c2=O)n1 | -1 | 6 | -13% | nt | 3.8
COc1ccc(C)cc1Nc1nc(-c2c(C)[nH]c3ccccc23)cs1 | -8 | -5 | 5% | 6 | 6.5
O=C(NCCN=C1NS(=O)(=O)c2ccccc21)c1ccc(S(=O)(=O)N2CCOCC2)cc1 | -17 | 9 | -2% | -13 | -2.0
Cc1nn(Cc2ccccc2)c(Cl)c1C(=O)NC(C)(C)C | -38 | -1 | -2% | -1 | -0.6
COc1cccc2c1OCC(CN1CCN(C3CCCCC3)C(CCO)C1)=C2 (centres undefined) | nt | -15 | -3% | -2 | -0.8
Cc1ccc(C(=O)NCCN(C)C)cc1C | -14 | 3 | 6% | 1 | 0.3
CN1CCCc2cc(C=O)ccc21 | -25 | 1 | 2% | -2 | 0.4
Cc1ccc(S(=O)(=O)N2CCOCC2)cc1C(=O)Nc1ccc(S(=O)(=O)Nc2nccs2)cc1 | nt | 6 | 5% | -7 | -2.5
CCOc1ccc(Cl)cc1CNc1nnnn1C | nt | -2 | 6% | -5 | 3.0
CCc1ccc(Oc2coc3cc(O)ccc3c2=O)cc1 | nt | nt | nt | 4 | -0.9
COc1ccc2cc(S(=O)(=O)c3ccccc3)c(=O)oc2c1 | nt | nt | -7% | -7 | 0.4
COc1cc(C2NC(=O)NC3=C2C(=O)OC3)cc(OC)c1OC (centres undefined) | nt | nt | -6% | -6 | -0.7
CN(C)/C=C1\C(=O)N(C)N=C1C(F)(F)F | nt | 6 | -5% | -2 | -3.0
O=c1cc(C(F)(F)F)nc(SC/C=C/c2ccccc2)[nH]1 | nt | nt | nt | ? | 7.0
Cc1ccc2nc(-c3ccc(NC(=O)CN4CCN(c5ccccn5)CC4)cc3)sc2c1 | nt | nt | 4% | 2 | -1.0
COc1ccc(NC(=O)Nc2nnc(Cc3ccc(OC)c(OC)c3)s2)cc1 | nt | nt | nt | 6 | -0.9
Cc1nn(-c2ccccc2)c(N2CCCC2)c1/C=C1\N=C(c2ccccc2)OC1=O | -2 | 8 | 1% | 5 | 2.2
O=C(CCCC(=O)OCC(Cl)=C(Cl)Cl)Nc1cccc2ccccc12 | -24 | -3 | 7% | 53 | 0.7
COc1ccc(CCC(=O)Nc2cccc(S(=O)(=O)N(C)C)c2)cc1OC | -25 | 8 | 1% | 8 | -12
CC(=O)NCC(=O)OCC(=O)c1ccc(Cl)cc1 | nt | -4 | 2% | 4 | -3.2
CN(C)/C=N/c1nc2ncc(-c3ccc(Cl)cc3)c(/N=C/N(C)C)n2n1 | nt | -6 | 2% | 4 | nt
CCN(CC)CCCNC(=O)c1cc2c(Cl)nc3ccccc3c2s1 | nt | -29 | -2% | 9 | -0.1
CCN(CC)C(=O)c1ccc(NC(=O)c2cc(-n3cnnc3)ccc2Cl)cc1 | -12 | 3 | -1% | -5 | 2.1
CCCCN(C)CCCNC(=O)CN1C(=O)COc2ccc(S(=O)(=O)N3CCOCC3)cc21 | nt | nt | nt | -1 | 1.9
CCOC(=O)CSc1nc(C)cc2c1C(=O)OC2 | nt | -2 | 4% | -4 | 2.3
CCCc1cc(C(=O)Nc2ccc(C(=O)OC)cc2)cs1 | nt | nt | nt | 1 | -0.6
Cc1cc(C)n2nc(Nc3ccccc3)cc2n1 | -2 | -4 | 8% | 1 | -2.2 | Arbovirus anti repeat=-1
N#Cc1c(NC(=O)CSCC(=O)O)sc2c1CCCC2 | -53 | 10 | -15% | -3 | 0.4
CCC1(c2ccccc2)NC(=O)N(CC(=O)Nc2ccc(S(=O)(=O)N3CC(C)CC(C)C3)cc2)C1=O (centres undefined) | nt | nt | nt | -2 | 0.8
O=C(O)COc1ccc2c3c(c(=O)oc2c1)CCCC3 | nt | 16 | 3% | -2 | -3.3
Cn1c(N)c(C(=O)COC(=O)/C=C/c2ccc(S(=O)(=O)N3CCOCC3)cc2)c(=O)n(C)c1=O | nt | nt | -5% | -7 | 0.2
Oc1ccc(-c2cn3ccccc3n2)cc1O | nt | nt | nt | 1 | -3.9
O=C1CC(NCCc2ccccc2)C(=O)N1CCc1ccccc1 (centres undefined) | nt | nt | -9% | -6 | -1.0
COc1ccc(C(=O)COc2ccc(F)cc2)c(O)c1 | nt | nt | -1% | 5 | 1.1
CSc1cccc(NC(=O)C2CCCN(S(=O)(=O)c3ccc(F)cc3)C2)c1 (centres undefined) | 0 | -9 | 11% | -6 | 6.0
COC(=O)CSc1[nH]c2cc(C)ccc2c1[N+](=O)[O-] | nt | -3 | 14% | 94 | -9.2
O=Cc1sc(Nc2ccccc2)nc1Cl | nt | 9 | -5% | 20 | 9.2
Cc1ccccc1-n1c(SCC(=O)N/N=C/c2ccccc2OCC(=O)O)nc2ccccc2c1=O | nt | nt | -6% | -6 | 1.3
CCOC(=O)c1[nH]nc2c1C(=O)N(CC)C2=O | -35 | 2 | 0% | -11 | -0.8
O=C(NCCCN1CCOCC1)c1sc2cc(Cl)ccc2c1Cl | nt | -27 | 3% | -5 | -0.2
CCOC(=O)c1[nH]c(C)c(C(=O)OCc2ccccc2F)c1C | nt | nt | nt | -1 | 0.5
Cc1ccc(N2NC(=O)/C(=C/c3ccc(-c4ccc(Cl)c(C(=O)O)c4)o3)C2=O)cc1C | nt | -14 | nt | 5 | -3.1
Cc1ccc(S(=O)(=O)N2CCCC(c3nc4c(nnn4Cc4ccc5c(c4)OCCO5)c(=O)[nH]3)C2)cc1 (centres undefined) | nt | nt | nt | 7 | -2.8
Cc1ccccc1NCC(=O)N/N=C/c1ccc([N+](=O)[O-])cc1 | -24 | 3 | 10% | -2 | -2.5
O=C(CSc1nnc(COc2ccccc2)o1)NCCc1ccccc1 | -40 | 7 | ? | 100 | 3.0
CC1(C)C(=O)OC(c2cccc([N+](=O)[O-])c2)C2(CCCCC2)C1=O (centres undefined) | nt | 3 | 6% | 5 | 1.1
O=C(CSc1nc(=O)n2ccccc2n1)NCc1ccc(F)cc1 | nt | nt | nt | -14 | -2.8
Brc1ccc(N/N=C(/N=Nc2nn[nH]n2)c2ccccc2)cc1 | nt | -31 | ? | 98 | 7.6
CCn1ccc2c(OCC(=O)NCCc3ccc(OC)c(OC)c3)cccc2c1=O | nt | nt | nt | -1 | -0.2
Cc1ccc(-c2ccc(=O)n(CCC(=O)N3CCN(Cc4ccccc4)CC3)n2)cc1 | nt | nt | nt | -5 | 2.0

Quoted at random: three compounds from above
SMILES | YopH inh | Arbovirus anti | Mtb H37Rv | Mtb betalactam | RecA splice inh | others
Cc1ccc(S(=O)(=O)N2CCCC(c3nc4c(nnn4Cc4ccc5c(c4)OCCO5)c(=O)[nH]3)C2)cc1 (centres undefined) | nt | nt | nt | 7 | -2.8
Cc1ccccc1NCC(=O)N/N=C/c1ccc([N+](=O)[O-])cc1 | -24 | 3 | 10% | -2 | -2.5
CCOC(=O)c1[nH]c(C)c(C(=O)OCc2ccccc2F)c1C | nt | nt | nt | -1 | 0.5

Carrying on:
SMILES | YopH inh | Arbovirus anti | Mtb H37Rv | Mtb betalactam | RecA splice inh | others
CCC(=O)NC(=S)Nc1ccc(NC(=O)c2ccc(C)c([N+](=O)[O-])c2)cc1 | -19 | -11 | 55% | 91 | 2.0
CCOc1ccccc1NC(=O)CSc1nc2cccnc2n1C | -43 | 3 | 4% | -7 | -1.0
O=C(Nc1cc(Br)ccc1O)c1cc(-c2cccs2)on1 | nt | nt | nt | -1 | 2.7
COC(=O)c1cc2cc(NS(=O)(=O)c3ccc(C)cc3)ccc2s1 | -17 | -1 | -4% | 11 | 1.6
CC(C)(C)NCCOc1ccc(Br)cc1 | -14 | 0 | 2% | 0 | -0.9
O=C(NCCN1C(=O)C2C3C=CC(C3)C2C1=O)Nc1ccccn1 (centres undefined) | nt | -4 | -1% | -4 | 1.0 | Arbovirus anti repeat=3
COc1ccc(CCNC(=O)C(C)Sc2ccc(C)cc2)cc1OC (centres undefined) | -19 | 10 | -1% | 5 | -0.4
O=C(CN1CCC(n2nnc3cc(F)ccc32)CC1)Nc1ccc2c(c1)CCC2 | -13 | -5 | 5% | 38 | nt
N#Cc1ccc(NC(=O)COC(=O)C2Cc3ccccc3CN2C(=O)c2ccccc2)cc1 (centres undefined) | -36 | 15 | 13% | 6 | 0.1
O=C(Nc1ccnc(-c2ccncc2)n1)c1cccs1 | nt | -5 | 1% | 3 | 1.3
Cc1sc2c(c1C)CN(CCN1CCOCC1)CN2C(=O)c1ccccc1 | nt | 5 | 0% | 1 | -2.9
Fc1ccc(CNC(=S)NC2CCCCCC2)cc1 | nt | 4 | 5% | 5 | 2.9
O=C(CSc1nnc(NC(=O)c2cc(Br)ccc2Cl)s1)NCC1CCCO1 (centres undefined) | nt | nt | nt | -7 | -6.9
COc1cc(SC)ccc1C(=O)NCCCOC(C)C | 3 | 3 | -10% | 5 | 2.6
CC(C)CNC(=O)CC(=O)N/N=C/c1ccc(F)cc1 | -27 | -1 | -1% | -1 | -0.3
CC(C)Sc1cc(Cl)nc(NC(=O)Nc2ccccc2)n1 | nt | nt | nt | -1 | 2.6
NS(=O)(=O)c1ccc(N=Cc2ccc(Br)s2)cc1 | -18 | 3 | 2% | 4 | 0.4
CC(C)(C)NC(=O)CN(Cc1cccs1)C(=O)CNS(=O)(=O)c1ccccc1 | -24 | 1 | -2% | -19 | 2.1
CN1CCN(C2=Nc3c(Cl)cc(Cl)c4cccc2c34)CC1 | nt | -24 | 2% | 2 | nt
COc1ccc(Nc2ncc(F)c(N3CCOCC3)n2)cc1 | nt | -5 | 14% | 8 | -0.8
Cc1c(N2C(=O)C(=O)/C(=C(/O)c3ccc(Cl)cc3)C2c2ccccc2)c(=O)n(-c2ccccc2)n1C (centres undefined) | -32 | -7 | -5% | -3 | 0.2
CC(C)N1CCc2c(sc(NC(=O)CCS(=O)(=O)c3ccccc3)c2C(N)=O)C1 | nt | nt | nt | ? | -20
CCOc1ccc(S(=O)(=O)Nc2ncn[nH]2)cc1 | nt | nt | nt | -4 | -2.4
COc1cccc(CNC(=O)Cn2cc3c(n2)CCCCC3)c1 | -40 | -4 | 3% | -2 | 2.7 | Arbovirus anti repeat=-6
CN1CC(C(=O)c2ccc([N+](=O)[O-])cc2)C(c2ccc(Cl)cc2)C1 (centres undefined) | nt | nt | nt | 2 | 0.5
CC(Nc1c([N+](=O)[O-])c(=O)oc2ccccc12)C(Cl)c1ccccc1 (centres undefined) | -57 | -2 | -2% | 6 | 3.7
O=C(O)c1ccccc1Sc1ccccc1S(=O)(=O)NC1CCCCC1 | nt | nt | -13% | 0 | 0.9
CC1CCCCN1CCCNC(=O)CN1C(=O)c2cccnc2Oc2ccccc21 (centres undefined) | nt | nt | nt | ? | 1.3
CC(O)/C=C/c1cccc[n+]1C (centres undefined) | -12 | 0 | -10% | -1 | nt
S=C(Nc1ccc(Oc2ccccc2)cc1)N1CCN(c2ccccn2)CC1 | nt | -10 | -2% | -4 | -0.1
